GIV Gai3 FP – inhibitors of GIV peptide binding to Galpha-i3, primary screen, biochemical, fluorescence polarization, FITC-GIV GBA peptide, rat Galphai3; Guanine nucleotide-binding protein G(i) subunit alpha-3 (Rattus norvegicus), P08753; 90 min; stronger effect = lower value; scaled: aluminum fluoride 0%, vehicle 100%; percent of control (FP), % (test concentration not listed); 210,000 compounds, 0.42% hits;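 active means replicate mean at 85% of control or lower, very high polarization wells dropped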;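 further: wells of about 15 µL received 100 nL stock; the first replicate is given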
Target sequence (P08753 whole entry, looked up): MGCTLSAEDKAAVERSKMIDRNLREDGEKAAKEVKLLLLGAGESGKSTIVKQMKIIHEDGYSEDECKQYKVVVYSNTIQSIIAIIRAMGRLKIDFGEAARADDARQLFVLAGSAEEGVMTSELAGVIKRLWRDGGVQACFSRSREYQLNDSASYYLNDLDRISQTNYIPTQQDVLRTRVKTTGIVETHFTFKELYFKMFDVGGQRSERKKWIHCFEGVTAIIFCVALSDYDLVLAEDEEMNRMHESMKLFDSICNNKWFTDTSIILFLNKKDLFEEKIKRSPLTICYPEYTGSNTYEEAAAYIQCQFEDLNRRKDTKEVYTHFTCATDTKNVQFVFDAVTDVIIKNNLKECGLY
HCMV NEC inh – inhibitors of HCMV UL50-UL53 interaction, biochemical, HTRF | inhibition, % (test concentration not listed) | HCMV UL50-UL53 nuclear egress complex (human cytomegalovirus) | normalized percent inhibition | 190,000 compounds, 0.15% hits;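 active means both replicates at 50% or more, plus weaker picks with an unusually low signal ratio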;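 further: stock transfer was 100 nL into about 20 µL; 0% = negative control wells and 100% = wells with untagged competitor protein; inactives centre near -12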
Sa growth 42C – S. aureus growth inhibition at 42 and 30 °C, primary screen, LtaS inhibitor project, RN4220, two temperatures. OD600, 20 h, 42 °C; stronger effect = lower value. relative growth, % (concentration not given with the values). 170,000 compounds, 0.53% hits;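 active means growth at 42 °C up to 50% and 20 or more points under that at 30 °C, or under 10% at both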;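 further: 300 nL library stock went into each well; scaled to the means of positive and negative controls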
Sa growth 42C second temp – further read-out of Sa growth 42C, marked with its call; relative growth, %; measured here: growth at 30 °C;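 optical density after 20 h as mean of two plates; 100% = untreated growth and lower means inhibition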
* marks the source's active call; other numbers are inactive results; / = no result given; & = joins results of further samples.

item	molecule	GIV Gai3 FP	HCMV NEC inh
1	O=C(NCc1ccccc1)c1nnc(CS(=O)(=O)c2ccccc2)o1	93	2
2	COc1ccc(C2CC(=O)C3=C(C2)NC(C)=C(C(=O)OCCOc2ccccc2)C3c2ccc(O)c(OC)c2)cc1 (stereo not drawn)	103	-22
3	CCOC(=O)c1ccc(NC(=O)c2cn(-c3ccccc3)nc2-c2ccc(OC)c(OC)c2)cc1	107	10
4	Cc1cccc(C(=O)NCc2nnc(SCC(=O)c3ccccc3)n2C)c1	102	3
5	CCNC(=O)C1CCN(S(=O)(=O)c2ccc3c(c2)CCCN3C(C)=O)CC1	99	/
6	Cc1nn(-c2ccccc2)c2nc(Cl)c(C=C(C#N)C#N)cc12	/	-33
7	Cc1nccn1-c1c2c(c(C#N)c3nc4ccccc4n13)CCCC2	105	/
8	CC(C)NC(=O)C1CCN(C(=O)N2CCOc3ccccc32)CC1	103	-22
9	Nc1nc(CSc2nc(N)c3[nH]cnc3n2)cs1	104	-22
10	CCOC(=O)C1CCN(c2cc3c(cc2NC(=O)c2ccc(Cl)cc2)n(C)c(=O)n3C)CC1	103	-14
11	c1coc(CNc2c(-c3ccc(N4CCCC4)cc3)nc3cnccn23)c1	114	-37
12	O=C(Nc1cccc(F)c1)c1cc(S(=O)(=O)NCCc2ccccc2)ccc1F	100	/
13	CCOc1cc(-c2cccc(Cl)c2)nc2ccc(C(=O)N3CCN(c4ccccn4)CC3)cc12	105	2
14	COc1ccc(-c2c(C#N)c(SCC(=O)Nc3ccc(Br)cc3)nc(C)c2C(=O)Nc2ccccc2)cc1	100	-11
15	Cc1ccc2cc3cc(C(=O)NC4CCCCC4)oc3nc2c1	102	-6

item	Sa growth 42C	Sa growth 42C second temp
1	87	88
2	/	/
3	94	94
4	104	74
5	107	80
6	75	82
7	121	99
8	79	84
9	/	/
10	99	85
11	80	72
12	93	84
13	/	/
14	98	95
15	111	101

Part of the list above, with one line to a screen:
(2) COc1ccc(C2CC(=O)C3=C(C2)NC(C)=C(C(=O)OCCOc2ccccc2)C3c2ccc(O)c(OC)c2)cc1 (stereo not drawn)
(3) CCOC(=O)c1ccc(NC(=O)c2cn(-c3ccccc3)nc2-c2ccc(OC)c(OC)c2)cc1
(4) Cc1cccc(C(=O)NCc2nnc(SCC(=O)c3ccccc3)n2C)c1
(5) CCNC(=O)C1CCN(S(=O)(=O)c2ccc3c(c2)CCCN3C(C)=O)CC1

entry no.,2,3,4,5
GIV Gai3 FP,103,107,102,99
HCMV NEC inh,-22,10,3,/
Sa growth 42C,/,94,104,107
Sa growth 42C second temp,/,94,74,80

Going on with the list:
item	molecule	GIV Gai3 FP	HCMV NEC inh
16	COc1ccc(OC)c(CNC(=O)c2ccc3c(c2)c(C)c(C)n3C)c1	107	/
17	CCC(C)(C)NC(=O)Cc1ccc2c(c1)OCCO2	/	-19
18	NC(=S)/C(=C\c1ccccc1O)C(=O)O	/	-106
19	Cc1onc(-c2c(Cl)cccc2Cl)c1C(=O)OC1=CC(=O)CC(C)(C)C1	109	-21
20	O=C(NC1CCCCC1)/C(=C/C=C\c1ccccc1)NC(=O)c1ccccc1	/	-6
21	CCCS(=O)(=O)/C(C#N)=C/c1cc(C(F)(F)F)cc(C(F)(F)F)c1	98	-4
22	O=C(c1cc(-c2cccnc2)n(-c2ccc(F)cc2)n1)N1CCN(c2ccc(F)cc2)CC1	101	-6
23	O=C(CSc1cn(CC(=O)N2CCCCC2)c2ccccc12)Nc1ccc(C(F)(F)F)cc1	105	/
24	COc1ccc(S(=O)(=O)Nc2cc(Cl)c3oc(=O)sc3c2)cc1OC	104	-29
25	O=C(CC1c2ccccc2CCN1S(=O)(=O)c1cccs1)OCC(=O)c1ccc(Cl)s1 (stereo not drawn)	/	-7
26	Cc1cccc(NC(=O)c2cc(S(=O)(=O)NCCc3ccccc3)ccc2F)c1C	101	/
27	CN(C)CC#Cc1ccc(-c2ccn[nH]2)s1	105	-40
28	Cc1c(Cl)cccc1-n1c(SCc2cc(=O)n3ccccc3n2)nc2n[nH]c(C)c2c1=N	95	/
29	COC(=O)c1sccc1S(=O)(=O)Nc1ccccc1	103	-17
30	CCNc1nc2c(c(=O)n(C)c(=O)n2C)n1CC	99	-13

item	Sa growth 42C	Sa growth 42C second temp
16	87	93
17	94	95
18	101	88
19	113	91
20	88	85
21	95	69
22	/	/
23	116	97
24	73	76
25	104	96
26	101	87
27	99	84
28	106	88
29	98	86
30	109	109

The list goes on.
item	molecule	GIV Gai3 FP	HCMV NEC inh
31	O=C(NCC1CCCO1)/C(=C/c1ccccc1)NC(=O)c1ccccc1 (stereo not drawn)	/	0
32	c1ccc(Nc2nc(N3CCCCC3)c3ccccc3n2)cc1	/	-13
33	O=C(/N=C1/c2ccccc2CN1c1ccccc1)Nc1ccccc1	/	-47
34	Cc1ccccc1NC(=O)N(C)CCc1noc(C2CCCCC2)n1	105	-21
35	COc1ccc(CCNC(=O)CN2C(=O)COc3ccc(S(=O)(=O)N4CCCC4)cc32)c(OC)c1	100	-25
36	CN(C)[C@@H]1C(=O)C(C(N)=O)=C(O)[C@@]2(O)C(=O)C3=C(O)c4c(O)ccc(Cl)c4[C@@H](O)[C@H]3C[C@@H]12	111	-20&-35&-37
37	COc1cc(S(=O)(=O)N2CCC(n3c(=O)[nH]c4ccccc43)CC2)ccc1-n1cnnn1	99&101	-14&-19
38	O=C(O)C(Oc1ccc2c3c(c(=O)oc2c1)CCCC3)c1ccccc1 (stereo not drawn)	93	0
39	COc1ccc(-c2nc(SCC(=O)c3ccc(OC)c(Br)c3)n[nH]2)cc1	97	7
40	O=C(NCCCN1CCCC1=O)c1cnc2sc3c(n2c1=O)CCCCC3	107	-8
41	CCOc1ccc2c(C)cc(=O)oc2c1	106	-34
42	COc1ccc(-c2cc(CCCC(=O)N3CCN(c4ccc(OC)cc4)CC3)no2)cc1	108	2
43	CCOC(=O)c1ccc(NC(=O)C2CCN(S(=O)(=O)Cc3ccccc3)CC2)cc1	101	-22
44	CC(C)C(Sc1nncn1C(C)C)C(=O)NC(N)=O (stereo not drawn)	/	-9
45	Cc1ccc(CN2CCN(CC(=O)NCc3ccccc3Cl)C2=O)cc1	103	-14

item	Sa growth 42C	Sa growth 42C second temp
31	119	86
32	14	27
33	100	81
34	/	/
35	99	83
36	-0.4*	-1.0*
37	105	82
38	94	93
39	103	97
40	/	/
41	101	88
42	79	90
43	97	85
44	92	92
45	106	90

3 records picked at random from those above, as already listed:
item	molecule	GIV Gai3 FP	HCMV NEC inh
37	COc1cc(S(=O)(=O)N2CCC(n3c(=O)[nH]c4ccccc43)CC2)ccc1-n1cnnn1	99&101	-14&-19
42	COc1ccc(-c2cc(CCCC(=O)N3CCN(c4ccc(OC)cc4)CC3)no2)cc1	108	2
38	O=C(O)C(Oc1ccc2c3c(c(=O)oc2c1)CCCC3)c1ccccc1 (stereo not drawn)	93	0

item	Sa growth 42C	Sa growth 42C second temp
37	105	82
42	79	90
38	94	93

Remaining list, next part
item	molecule	GIV Gai3 FP	HCMV NEC inh
46	CCc1ccc(N2CC(C)Cn3c2nc2c3c(=O)n(CC(=O)O)c(=O)n2C)cc1 (stereo not drawn)	102	-18
47	O=C(O)/C=C/c1cn(CCC(=O)O)nc1-c1ccccc1	/	-19
48	O=C(Nc1cccc(C(F)(F)F)c1)c1cccc(F)c1	/	-13
49	C=CCNC(=O)CSc1nccc(-c2sc3sc(Br)c(C)c3c2C)n1	103	-47
50	CCCCNc1nc(Nc2ccc(Cl)cc2)nc(N2CCOCC2)n1	100	-20
51	CCOC(=O)c1c(C)n(C)c2c1cc(OC(=O)c1ccccc1Cl)c1ccccc12	99	-10
52	O=C(c1ccc(Cl)cc1)N1N=C(c2ccccc2)CC1(O)C(F)(F)F (stereo not drawn)	108	-25
53	CCSC1=C(C#N)C(c2cccs2)C(C(=O)Nc2ccccc2)=C(C)N1 (stereo not drawn)	100	/
54	O=C1c2ccccc2C(=O)N1c1ccccc1	104	-25
55	CCOC(=O)c1c(NC(C)=O)c2c3c(sc2n1Cc1nc(-c2cccc(C)c2)oc1C)CCCC3	105	-28
56	CCCCNC(=O)CCC(=O)NNc1nc2ccccc2c2nc(C)nn12	102	-2
57	Cn1c(CSc2ccccc2)nc2ccccc21	100	10
58	COc1cccc(CNc2sc3c(c2C(=O)Nc2ccc(OC)cc2OC)CCC3)c1	110	/
59	Cc1cc(C(=O)OCC(=O)N(C)c2ccccc2)c2ccccc2n1	/	-56
60	CC1CCCC(NC(=O)COC(=O)c2ccc(Br)o2)C1C (stereo not drawn)	/	1

item	Sa growth 42C	Sa growth 42C second temp
46	94	89
47	95	88
48	99	83
49	90	85
50	/	/
51	/	/
52	/	/
53	101	67
54	122	101
55	109	87
56	108	90
57	80	82
58	110	74
59	104	90
60	106	90

Other structures follow.
item	molecule	GIV Gai3 FP	HCMV NEC inh
61	Cc1ccc(-c2csc3c(=O)n(C)c(SCC(=O)N4CCOc5ccc(C)cc54)nc23)cc1	110	13
62	CCOC(=O)c1cnc(N2CCc3ccccc3C2)nc1N	98	-31
63	CC(OC(=O)C1=Cc2ccccc2OC1)C(=O)NCC1CCCO1 (stereo not drawn)	98	-19
64	c1csc(-c2nnc(CSc3cccc4cccnc34)o2)c1	/	-14
65	Cc1cc(-c2nnc(-c3ccccc3)c(-c3ccccc3)n2)c(C)o1	/	-32
66	CCN1CCN(CCCNC(=O)c2ccc3nc(/C=C(\O)c4cccc(OC)c4)c(=O)[nH]c3c2)CC1	183	-108
67	CN(C(=O)CSc1c2c(nc3cc(Cl)ccc13)CCCC2)c1ccc(F)cc1	104	/
68	O=C1NC(=O)/C(=C\c2ccccc2C(F)(F)F)S1	98	-30
69	CCOc1cc(C=C2C(=O)N(C)C(=O)N(C)C2=O)ccc1OCCOc1ccccc1C	102	-19
70	CCN(c1ccccc1)S(=O)(=O)c1ccc(NC(=O)c2nc(SC)ncc2Cl)cc1	104	-9
71	CC(=O)N/C(N)=N\c1nc(=O)c2ccccc2s1	104	21
72	OCCn1nc2c3ccccc3nc-2n(-c2ccccc2)c1=S	/	-86
73	CN(CCO)c1nc(-c2ccccc2)c2cc(Br)ccc2n1	106	-7
74	CC(C)c1nc2ccccc2n1C(C)c1ccccc1 (stereo not drawn)	99	-5
75	CCOC(=O)CC(=O)CSc1nc2ccsc2c(=O)n1Cc1ccccc1	109	/

item	Sa growth 42C	Sa growth 42C second temp
61	/	/
62	78	88
63	81	91
64	101	73
65	86	82
66	102	98
67	98	58
68	41	7
69	/	/
70	127	72
71	99	102
72	86	84
73	87	69
74	88	85
75	90	102

The list continues.
item	molecule	GIV Gai3 FP	HCMV NEC inh
76	Cc1nc(/N=C(/N)Nc2cccc(Cl)c2C)[nH]c(=O)c1Cc1ccccc1	102	-2
77	CCOc1ccc(NC(=O)c2cc(-c3ccc(C)s3)nc3ccccc23)c([N+](=O)[O-])c1	100	-29
78	Cc1ccc(Cl)cc1N1CCN(C(=O)CN2C(=O)c3ccccc3Sc3ncccc32)CC1	105	-308
79	O=C(Nc1ccc(OCc2ccccc2)cc1)Nc1cccnc1	104	-11
80	Cc1ccc(CN2C(=O)C3CCCCC3C2=O)cc1S(=O)(=O)Nc1cccc(Cl)c1 (stereo not drawn)	105	13
81	CC(=O)Nc1ccc(S(=O)(=O)N(C(C)=O)c2nc(C)cc(C)n2)cc1	101	0
82	COC(=O)c1ccc2c(=O)n(CCC(=O)N3CCc4ccccc4C3)c(=S)[nH]c2c1	105	-3
83	CCc1ccc(C2=C(C)C(=O)N(CC(=O)Nc3ccc(Br)cc3F)S2(=O)=O)cc1	97	-20
84	Cc1ccc2scc(N3CCN(c4ccccc4)CC3)c(=O)c2c1	103	/
85	CCOC(=O)c1cc(C)n(-c2ccc(C(=O)N3CCc4ccccc43)cc2)c1C	99	/
86	Cc1ccc(NS(=O)(=O)c2ccc3[nH]c4c(c3c2)CCCC4)cc1N(C)C	106	/
87	Cc1c(C(=O)OCC(=O)NC2(C#N)CCCCC2)sc2nc3n(c(=O)c12)CCC3	/	-47
88	Cc1nc2scc(C)n2c(=O)c1S(=O)(=O)Nc1ccc(N2CCN(S(C)(=O)=O)CC2)cc1	97	-13
89	COc1ccc(-c2cn[nH]c2C)cc1OC	96	-8
90	NC(=O)c1c(NC(=O)CS(=O)(=O)c2ccc(Cl)cc2)sc2c1CCCC2	102&102	/

item	Sa growth 42C	Sa growth 42C second temp
76	108	102
77	/	/
78	/	/
79	93	87
80	/	/
81	/	/
82	/	/
83	/	/
84	95	59
85	102	82
86	83	76
87	108	90
88	91	87
89	/	/
90	94	103

Continued.
item	molecule	GIV Gai3 FP	HCMV NEC inh
91	O=C(O)CCc1ccc(-c2ccccc2)n1-c1cccc(C(=O)O)c1	103	-8
92	CCOC(=O)c1sc(NC(=O)C(C)Sc2ncnc3ccccc23)c(C(=O)OCC)c1C (stereo not drawn)	109	-4
93	CC(C)(C)c1cc2nc(C(F)(F)F)cc(N3CCN(C(=O)c4ccccc4)CC3)n2n1	104	-18
94	CCc1ccc(NC(=O)CN2C(=O)CCc3ccccc32)cc1	99	/

item	Sa growth 42C	Sa growth 42C second temp
91	/	/
92	108	101
93	96	95
94	89	83

Screens from PubChem.
